High-throughput results: PubChem BioAssay, several laboratories
PKD1 inh – inhibitors of human PKD1 kinase, biochemical, fluorescence polarization | PKD1 kinase fluorescence polarization assay | inhibition, %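 (about 10 µM by stock and volumes)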 | hit rate 0.056% among 200,000;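 active = inhibition of 50% or more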;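 note: controls were vehicle for no effect and a reference inhibitor for full effect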
GALR2 agonist – GALR2 receptor agonists, primary screen, cell-based. Galanin receptor type 2 (Homo sapiens), O43603. GALR2-expressing cells, agonist activation read-out. activation, %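 (tested at 5 µM)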. hit rate 0.48% among 140,000. AID 803, 2007;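 active = above mean plus 3 SD of all compounds, about 5% in these data, not always enough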;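 note: 0% = vehicle buffer wells and 100% = reference agonist at full effect; tested in CHO reporter cells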
Target sequence (O43603 whole entry, looked up): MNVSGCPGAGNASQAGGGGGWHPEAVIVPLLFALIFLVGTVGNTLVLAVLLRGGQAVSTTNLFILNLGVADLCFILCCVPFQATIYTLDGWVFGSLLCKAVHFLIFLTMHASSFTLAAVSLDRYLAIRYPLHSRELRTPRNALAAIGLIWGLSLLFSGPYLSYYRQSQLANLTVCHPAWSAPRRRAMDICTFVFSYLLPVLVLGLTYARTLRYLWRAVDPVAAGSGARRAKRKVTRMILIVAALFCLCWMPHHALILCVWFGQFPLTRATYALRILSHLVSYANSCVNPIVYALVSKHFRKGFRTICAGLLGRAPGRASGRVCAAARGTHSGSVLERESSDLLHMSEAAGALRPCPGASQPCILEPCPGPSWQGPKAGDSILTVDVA
HSV augment – enhancers of HSV replication in host cells, fold increase, host cell viability; HSV replication augmentation in cells; hit rate 0.005% among 220,000; maximum fold increase; AID 1956, 2009;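 active = peak rise of 1.5-fold or more in the series; inconclusive = self-fluorescent or not available for retest; tested in PC3 cells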;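 note: first round at 10 µM; read as green reporter fluorescence; hits show the peak of a series up to 25 µM; 1 = signal of infected wells without compound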
INS promoter inh – inhibitors of insulin promoter-driven GFP, primary screen, imaging, TRM-6 cells (human fetal islet line), eGFP reporter, cell count; inhibition, % at 2 µM; reporter expression induced with tamoxifen; hit rate 0.9% among 130,000; AID 1273, 2008;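 active = inhibition above the mean plus 3 SD, with well images judged a real hit on visual review, cut at about 60% in these data, passing the limit was not always enough; inconclusive = inhibition over the cutoff but images rejected on review; inactive = inhibition not above the cutoff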
RGS16-Gao HTS – modulators of RGS16 binding to Galphao, primary screen, biochemical, human proteins, multiplexed bead flow cytometry. Regulator of G-protein signaling 16 (Homo sapiens) + Guanine nucleotide-binding protein …. bead-based flow cytometry RGS16-Galphao binding, fluorescence; actives lie on both sides. binding response (% of control), % at 10 µM. hit rate 0.38% among 220,000;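 active = below 25% or above 175%, edge rows of some plates excepted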;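 note: Galphao activated by GDP with aluminum fluoride before binding; 100% = wells without compound and 0% = beads without RGS; some results beyond the cut were filed as inactive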
Target sequence (O15492 whole entry, looked up): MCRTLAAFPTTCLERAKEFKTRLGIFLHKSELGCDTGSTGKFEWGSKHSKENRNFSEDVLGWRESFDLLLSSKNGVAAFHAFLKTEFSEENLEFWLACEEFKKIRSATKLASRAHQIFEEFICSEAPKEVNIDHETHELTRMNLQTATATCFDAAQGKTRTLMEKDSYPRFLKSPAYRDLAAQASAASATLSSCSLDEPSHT
Target sequence (P09471 whole entry, looked up): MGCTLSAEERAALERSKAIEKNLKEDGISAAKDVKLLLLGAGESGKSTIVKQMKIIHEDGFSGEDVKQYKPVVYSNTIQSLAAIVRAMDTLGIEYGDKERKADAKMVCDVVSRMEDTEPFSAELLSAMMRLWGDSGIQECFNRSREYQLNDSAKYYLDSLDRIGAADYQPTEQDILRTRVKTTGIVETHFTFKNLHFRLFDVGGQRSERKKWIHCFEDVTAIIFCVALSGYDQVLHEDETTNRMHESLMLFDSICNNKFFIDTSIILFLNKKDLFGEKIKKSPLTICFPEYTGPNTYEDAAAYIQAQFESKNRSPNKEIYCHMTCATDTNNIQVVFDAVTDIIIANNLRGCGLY
INS promoter inh cell count – second read-out of INS promoter inh, no call of its own (marks repeat the call); normalized cell count, %; measured here: cell count, toxicity; reference of the scale not given here;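 cells exposed to compound for 48 h; stained nuclei by imaging scaled within each plate; lower means fewer cells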
HSV augment primary fold – recorded beside HSV augment, whose call it bears; fold increase; compound at 10 µM; measured here: primary screen fold increase 10 uM; tested in PC3 cells;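 GFP signal in the first replicate; 1 = infected wells without compound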
The depositor's hits bear a star; i = inactive; ? = inconclusive; · = no result given.

SMILES | PKD1 inh | GALR2 agonist | HSV augment | HSV augment primary fold | INS promoter inh | INS promoter inh cell count | RGS16-Gao HTS
Cc1cc(C)c[n+](C[n+]2cc(C)cc(C)c2)c1 | -2 | · | i | 1 | · | · | 107
CC1=CC(C)(C)N(C(=O)CSc2nnc(N)s2)c2c(C)cc(C)cc21 | 8 | -1.6 | i | 0.85 | 23 | 77 | 96
COc1ccc(/C(=N\O)c2ncc(C(F)(F)F)cc2Cl)cc1 | -3 | -1.4 | i | 0.95 | 12 | 68 | 104
Cc1cccc(Nc2nc(N3CCCC3)nc(N3CCCC3)n2)c1 | -1 | -1.9 | i | 0.87 | 29 | 99 | 105
Cc1ccccc1OCCOCCN1CCCCCC1 | -9 | · | i | 0.98 | 19 | 89 | 100
CC1CCN(S(=O)(=O)c2cc(C(=O)N3CCN(c4ncccn4)CC3)ccc2Br)CC1 | -1 | 0.6 | i | 0.89 | -14 | 74 | 104
Cn1c(=O)c2c(nc(NN=C3CCCC3)n2C)n(C)c1=O | · | · | i | 0.87 | · | · | 95
CCOC(=O)c1nnn(-c2nonc2N)c1CNC(C)C | 4 | -1.5 | i | 0.75 | · | · | 101
COc1ccccc1/C=C/CN1CCN(Cc2ccc(F)cc2)C(CCO)C1 (stereo not given) | -6 | · | i | 1.1 | · | · | 98
Cc1ccc(CSC2=NCCN2C(=O)c2ccc(S(=O)(=O)N(C)C)cc2)cc1 | -4 | · | i | 1.1 | · | · | 97
Cc1cccc(N2C(S)=C(C#N)C(=O)NC2c2cccs2)c1 (stereo not given) | -6 | -0.8 | i | 0.95 | -14 | 48 | 154
O=C1C=Cc2ccccc2/C1=C/c1[nH]c(=O)[nH]c1O | · | · | i | 1.1 | · | · | 98
O=C(Oc1cccc2cccnc12)c1ccc(Br)o1 | 1 | -1.2 | i | 0.96 | · | · | 94
CC(CCc1ccccc1)NC(=O)CCCCCNc1nc(=S)[nH]c2ccccc12 (stereo not given) | -3 | · | i | 0.93 | -43 | 85 | 101
CC(C)C1C(C#N)=C(N)Oc2n[nH]c(C(C)(C)C)c21 (stereo not given) | 4 | -1.6 | i | 0.97 | -50 | 47 | 100
O=C(NCc1ccccc1)N1CCC(CO)(CCc2ccccc2)CC1 | -6 | · | i | 1.1 | · | · | 111
CCOC(=O)N1CCC(N2CCN(S(=O)(=O)c3ccc(NC(C)=O)cc3)CC2)CC1 | -12 | -1.5 | i | 0.71 | 27 | 146 | 103
COC(=O)c1c(N(S(C)(=O)=O)S(C)(=O)=O)sc2c1CCN(c1ncc(C(F)(F)F)cc1Cl)C2 | -8 | -0.3 | i | 1 | 13 | 77 | 110
CC(C)CC(N=C1NC(C)(C)Cc2ccccc21)C(=O)O (stereo not given) | 0 | -4.9 | · | · | -338 | 79 | 102
COc1ccc2c(c1)c(CC(=O)Nc1cc(C)ccc1C)c(C)n2C(=O)c1ccc(Cl)cc1 | 4 | -1.7 | i | 0.98 | -14 | 139 | 99
CCOC(=O)c1c(C)[nH]c(C)c1C(=O)COC(=O)c1ccc(OC)c(OC)c1 | -5 | · | i | 0.96 | -8 | 106 | 108
C[n+]1cn(CC(O)COCc2ccccc2)c2ccccc21 (stereo not given) | -9 | 0.1 | · | · | 5 | 72 | 99
O=C(NCc1cccs1)C1CC(c2ccccc2O)=NO1 (stereo not given) | -4 | 0.2 | · | · | i | 70 | 101
O=C(O)c1cccc(NC(=S)NC(NC(=O)c2ccco2)C(Cl)(Cl)Cl)c1 (stereo not given) | · | · | i | 0.99 | · | · | 91
Cn1c(SCC(=O)N/N=C/c2ccncc2)nc2ccccc21 | · | · | i | 1 | · | · | 103
CCCCN(CCCC)C(=O)CSc1nnc(-c2cc(OC)c(OC)c(OC)c2)o1 | 6 | -1.2 | i | 1 | · | · | 108
N#Cc1c(N)nc(SCC(=O)NCCc2ccccc2)c(C#N)c1-c1cccs1 | -11 | -0.1 | · | · | -50 | 44 | 102
CSc1nc(C)cc(SCC(=O)Nc2ccccc2)n1 | -12 | -0.5 | i | 1 | 34 | 105 | 104
Cc1ccc(N2C(=O)Nc3ccccc3C2(O)C(=O)N2CCN(c3ccccn3)CC2)cc1C (stereo not given) | 10 | · | i | 0.87 | -40 | 99 | 105
COC(=O)c1ccc(NC(=O)c2cc(-c3ccccn3)nc3ccccc23)cc1 | -4 | · | i | 0.83 | · | · | 107
CCOC(=O)N1CCN(S(=O)(=O)c2ccc(F)c(C(=O)Nc3cccc(C)c3C)c2)CC1 | 18 | 1.1 | i | 1.1 | · | · | 106
COc1ccc(OC)c(NC(=O)C(CCS(C)(=O)=O)NC(C)=O)c1 (stereo not given) | · | · | i | 1 | · | · | 109
O=C(CSc1nnc(-c2ccccc2)o1)N1CCOCC1 | 12 | -2.8 | i | 0.85 | 43 | 161 | 100
O=C(CSc1nc(O)cc(=O)n1-c1ccccc1)Nc1nc2ccccc2s1 | · | · | i | 0.91 | · | · | 98
Cc1nn(C)c(C)c1/C=C(/C(=O)C(C)(C)C)n1cncn1 | · | · | i | 0.77 | · | · | 100
CC(C)(C)C(=O)NC(=S)NNC(=O)C(c1ccccc1)c1ccccc1 | 9 | · | i | 0.83 | 0 | 75 | 103
Cc1ccc(Nc2nc(N)nc(CN3CCc4ccccc4C3)n2)cc1 | -2 | 0.4 | i | 0.76 | -16 | 51 | 103
c1ccc(-c2nn3cnnc3c3ccccc23)cc1 | 5 | · | i | 0.94 | · | · | 102
CCn1nc(C(=O)N2CCN(Cc3ccc4c(c3)OCO4)CC2)c2ccccc2c1=O | -7 | -1.5 | i | 0.61 | · | · | 102
COc1cc(/C=C(\C#N)C(=O)Nc2ccc3c(c2)OCCO3)ccc1O | · | · | i | 1 | · | · | 99
CN(CC(=O)Nc1cccc(F)c1)C(=O)CCCc1cccs1 | -6 | -0.8 | i | 0.95 | · | · | 103
CCc1ccc(NC(=S)Nc2cc(C(=O)O)ccc2N2CC3CC(C2)c2cccc(=O)n2C3)cc1 (stereo not given) | -2 | · | i | 1 | -127 | 71 | 97
CCCNC(=S)Nc1ccc(Nc2ccccc2)cc1 | 6 | -3.0 | i | 0.82 | -112 | 111 | 100
Cn1c(=O)[nH]c(=O)c2c1nc(SCC(O)CO)n2Cc1ccccc1Cl (stereo not given) | -5 | -0.7 | i | 0.96 | 46 | 52 | 101
CCNS(=O)(=O)c1cccc(C(=O)c2c(C)cc3ccccn23)c1 | 2 | -1.6 | i | 0.95 | -15 | 98 | 101
CC1=CC(C)(C)NC(=S)N1c1ccccc1 | 1 | -3.0 | i | 0.81 | -6 | 107 | 99
Fc1cccc(NC(=S)N2CCn3cccc3C2c2cccnc2)c1 (stereo not given) | -6 | · | i | 0.79 | 0 | 151 | 100
CN1N=C2c3ccccc3CCC2C1c1ccc(F)cc1 (stereo not given) | · | · | i | 1.1 | · | · | 101
Cc1ccc(-c2ccccc2[C@@H]2C[C@H]3CN(C)C(=O)[C@]34CCCN24)o1 | -1 | · | i | 1.6 | · | · | 104
COc1ccc(OC)c(S(=O)(=O)N(C)CC(=O)Nc2ccccc2OC)c1 | -3 | -1.5 | i | 0.92 | -200 | 78 | 114

Record cards (already shown). Order of screens: PKD1 inh	GALR2 agonist	HSV augment	HSV augment primary fold	INS promoter inh	INS promoter inh cell count	RGS16-Gao HTS
CC1=CC(C)(C)NC(=S)N1c1ccccc1 is listed as 1	-3.0	i	0.81	-6	107	99
CCCNC(=S)Nc1ccc(Nc2ccccc2)cc1 is listed as 6	-3.0	i	0.82	-112	111	100

(next part)
SMILES | PKD1 inh | GALR2 agonist | HSV augment | HSV augment primary fold | INS promoter inh | INS promoter inh cell count | RGS16-Gao HTS
C/C(=N/OCO/N=C(\C)c1ccc(F)cc1F)c1ccc(F)cc1F | -1 | 0.9 | · | · | · | · | 106
CC(C)(C)C(=O)NCCCNc1ccc([N+](=O)[O-])cc1 | -9 | · | i | 0.92 | · | · | 93
FC(F)(F)c1nc(N2CCCC2)ncc1-c1nnnn1-c1ccccc1 | 11 | -2.1 | i | 0.77 | · | · | 101
CCCn1c(C)cc(C(=O)COc2ncnc3sccc23)c1C | -12 | -1.1 | i | 0.95 | · | · | 63
O=C(N/N=C\C=C\c1ccc2c(c1)OCO2)c1ccc(F)cc1 | 7 | · | i | 1 | 33 | 134 | 105
CCCCOc1ccc(N(CC(=O)NCC2CCCO2)C(=O)CCC(=O)Nc2nccs2)cc1 (stereo not given) | -2 | · | i | 0.99 | · | · | 100
CC1CN(S(=O)(=O)c2ccc(C(=O)Nc3sccc3C(N)=O)cc2)CC(C)O1 (stereo not given) | -4 | 0.6 | i | 0.78 | -50 | 93 | 105
OCCN1CCN(CC(O)COCc2ccc3c(c2)OCO3)CC1 (stereo not given) | 0 | -2.1 | i | 0.92 | 6 | 79 | 102
COc1ccccc1NC(=S)NNC(=O)c1cc(C)n(C)n1 | 2 | -0.1 | i | 0.99 | -82 | 102 | 97
CC1(C)Cc2c(c(-c3ccco3)[nH]c(=O)c2C#N)CS1 | -11 | -1.1 | ? | · | 25 | 39 | 105
C=CCOc1ccc(CNn2nnnc2N)cc1 | -10 | -1.7 | · | · | 6 | 50 | 50
NS(=O)(=O)c1ccc(NC(=S)NC2CCCCC2)cc1 | -2 | · | i | 1 | · | · | 102
CC[C@H](C)[C@H](NC(N)=O)C(=O)NCCc1ccc(OC)cc1 | · | · | i | 0.97 | · | · | 94
O=C(c1cc2ccccc2oc1=O)N(Cc1cccs1)Cc1ccccc1Cl | 1 | -3.2 | i | 0.84 | -20 | 129 | 95
O=C(CCNC(=O)c1ccc([N+](=O)[O-])cc1)Nc1ccc(N2CCOCC2)cc1N1CCOCC1 | -8 | · | i | 1.6 | · | · | 102
COc1ccc(C(CCNC(C)c2ccccc2)C(C)C)cc1 (stereo not given) | · | · | i | 0.89 | · | · | 102
COC(=O)NNC(=O)COc1ccc(Br)c(C)c1 | 5 | -3.4 | i | 0.96 | 52 | 72 | 99
Cc1ccc(CNC(=O)c2nnn(-c3cccc(C)c3)c2N)cc1 | 0 | 0.5 | i | 1 | · | · | 104
Cn1ccnc1Sc1ccc(C=O)cc1[N+](=O)[O-] | 4 | · | i | 0.94 | 18 | 123 | 95

Arranged by SMILES length (highest first): some entries from above
SMILES | PKD1 inh | GALR2 agonist | HSV augment | HSV augment primary fold | INS promoter inh | INS promoter inh cell count | RGS16-Gao HTS
O=C(CCNC(=O)c1ccc([N+](=O)[O-])cc1)Nc1ccc(N2CCOCC2)cc1N1CCOCC1 | -8 | · | i | 1.6 | · | · | 102
CCCCOc1ccc(N(CC(=O)NCC2CCCO2)C(=O)CCC(=O)Nc2nccs2)cc1 (stereo not given) | -2 | · | i | 0.99 | · | · | 100
CC1CN(S(=O)(=O)c2ccc(C(=O)Nc3sccc3C(N)=O)cc2)CC(C)O1 (stereo not given) | -4 | 0.6 | i | 0.78 | -50 | 93 | 105
CC[C@H](C)[C@H](NC(N)=O)C(=O)NCCc1ccc(OC)cc1 | · | · | i | 0.97 | · | · | 94
C/C(=N/OCO/N=C(\C)c1ccc(F)cc1F)c1ccc(F)cc1F | -1 | 0.9 | · | · | · | · | 106
FC(F)(F)c1nc(N2CCCC2)ncc1-c1nnnn1-c1ccccc1 | 11 | -2.1 | i | 0.77 | · | · | 101
O=C(N/N=C\C=C\c1ccc2c(c1)OCO2)c1ccc(F)cc1 | 7 | · | i | 1 | 33 | 134 | 105
CC1(C)Cc2c(c(-c3ccco3)[nH]c(=O)c2C#N)CS1 | -11 | -1.1 | ? | · | 25 | 39 | 105
CCCn1c(C)cc(C(=O)COc2ncnc3sccc23)c1C | -12 | -1.1 | i | 0.95 | · | · | 63
NS(=O)(=O)c1ccc(NC(=S)NC2CCCCC2)cc1 | -2 | · | i | 1 | · | · | 102
Cn1ccnc1Sc1ccc(C=O)cc1[N+](=O)[O-] | 4 | · | i | 0.94 | 18 | 123 | 95
COC(=O)NNC(=O)COc1ccc(Br)c(C)c1 | 5 | -3.4 | i | 0.96 | 52 | 72 | 99
C=CCOc1ccc(CNn2nnnc2N)cc1 | -10 | -1.7 | · | · | 6 | 50 | 50
